Source: PubChem
Vaccinia inh: blocks a specific stage of Vaccinia orthopoxvirus infection. activity change (mCherry), % (no concentration beside the values). AID 1053133. Vaccinia-infected cells, mCherry/Venus stage reporter fluorescence; hits give low values; some inactives read as strong as hits. 89,000 compounds, 0.01% hits;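 active means mCherry past -33% and 40 or more points under the early reporter, replicates agreeing; inconclusive means past -33% without that gap or agreement; tested in A549 cells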;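 further: scaled between vehicle wells and reference inhibitor wells; 23 nL library stock went into each well; one replicate is shown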
Vaccinia inh Venus: recorded beside Vaccinia inh, whose call it bears; activity change (Venus), %; measured here: Venus reporter, other viral stage;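 negative = less Venus signal; first of two replicates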
* marks the source's active call; other numbers are inactive results; ? = inconclusive; nt = not tested or not shown.

| compound | Vaccinia inh | Vaccinia inh Venus |
| --- | --- | --- |
| CNC[C@H]1Oc2ccc(NC(=O)C3CCCCC3)cc2C(=O)N([C@H](C)CO)C[C@@H]1C | 14 | 23 |
| O=C(C1CCCC1)N1C[C@@H]2N[C@H](C1)C2c1ccc(/C=C/c2ccccc2)cc1 (stereo not given in full) | ? | -13 |
| N#C[C@H]1[C@@H](c2ccccc2C2=CCCCC2)[C@H](CO)N1C(=O)CN1CCOCC1 | 0 | 0 |
| O=C(Cc1ccccn1)N1CCCCN2[C@H](C1)[C@H](c1ccc(-c3ccccc3F)cc1)[C@@H]2CO | -14 | -4 |
| C[C@@H]1CN([C@@H](C)CO)C(=O)c2cc(NC(=O)Nc3ccc4c(c3)OCO4)ccc2O[C@@H](C)CCCCO[C@@H]1CN(C)Cc1ccc(C(F)(F)F)cc1 | -3 | 2 |
| COc1ccc(NC(=O)Nc2ccc3c(c2)C(=O)N([C@H](C)CO)C[C@@H](C)[C@@H](CN(C)C(=O)Nc2cccc4ccccc24)O3)cc1 | 14 | 19 |
| CCNC(=O)C[C@H]1CC[C@@H]2[C@H](COc3ccc(NC(=O)Nc4c(C)noc4C)cc3C(=O)N2C)O1 | 4 | 0 |
| CCS(=O)(=O)Nc1ccc2c(c1)C(=O)N(C)[C@@H]1CC[C@@H](CC(=O)NCCOC)O[C@@H]1CO2 | 10 | 9 |
| CN(C)C(=O)[C@@H]1[C@@H](CO)[C@@H]2Cn3c(ccc(C4=CCCC4)c3=O)[C@H]1N2C(=O)c1ccccc1 | 9 | 3 |
| CC(C)CC#Cc1cnc2c(c1)C(=O)N([C@H](C)CO)C[C@H](C)[C@H](CN(C)CC1CCOCC1)O2 | 18 | 8 |
| CNC[C@H]1Oc2ccc(NC(=O)Nc3ccccc3)cc2C(=O)N([C@@H](C)CO)C[C@H]1C | 8 | 3 |
| CC(C)NC(=O)N1[C@@H]2c3cccc(=O)n3C[C@H]1[C@H](CO)[C@H]2C(=O)N1CCC(Cc2ccccc2)CC1 | 8 | 10 |
| O=C(NCC[C@@H]1CC[C@@H](NC(=O)C2CCC2)[C@H](CO)O1)Nc1ccc(Cl)cc1 | 5 | 13 |
| C[C@@H]1CCCCO[C@H](CN(C)C(=O)Cc2ccccc2)[C@@H](C)CN([C@H](C)CO)C(=O)c2cc(NC(=O)Cc3ccccc3)ccc2O1 | 9 | 4 |
| Cc1ccc(S(=O)(=O)N(C)C[C@H]2OCCCC[C@H](C)Oc3ccc(NC(=O)Nc4ccc(F)cc4)cc3C(=O)N([C@H](C)CO)C[C@H]2C)cc1 | 6 | 11 |
| COc1ccc(NC(=O)Nc2cccc3c2O[C@@H](CN(C)S(=O)(=O)c2ccc(OC)cc2)[C@H](C)CN([C@H](C)CO)C3=O)cc1 | 13 | -2 |
| C[C@@H]1CN([C@@H](C)CO)C(=O)c2cc(NC(=O)CCC(F)(F)F)ccc2O[C@@H]1CN(C)Cc1ccc(Oc2ccccc2)cc1 | ? | nt |
| O=C(Nc1ccc(Cl)c(Cl)c1)N[C@@H]1CC[C@H](CCn2cc(C3CCCCC3)nn2)O[C@H]1CO | -15 | 2 |
| COc1ccccc1CN(C)C[C@@H]1OCc2ccccc2-c2ccccc2C(=O)N([C@@H](C)CO)C[C@@H]1C | -14 | -13 |
| O=C(Nc1ccccc1F)N[C@H]1CC[C@@H](CCNC(=O)C2CC2)O[C@@H]1CO | 3 | -1 |
| C[C@@H]1CN([C@H](C)CO)C(=O)c2cc(NS(=O)(=O)c3ccccc3)ccc2O[C@@H](C)CCCCO[C@@H]1CN(C)S(=O)(=O)c1ccc(Cl)cc1 | -12 | -5 |
| O=C(c1ccccc1)N1CC2(C1)[C@H](c1ccccc1)[C@@H](CO)N2Cc1cccnc1 | 11 | 2 |
| C[C@H]1CN([C@@H](C)CO)C(=O)Cc2cc(NS(C)(=O)=O)ccc2O[C@@H]1CN(C)CC1CC1 | 5 | 3 |
| CCC(=O)N(C)C[C@H]1Oc2cc(C#C[C@H](C)O)ccc2S(=O)(=O)N([C@@H](C)CO)C[C@H]1C | 15 | 4 |
| O=C(C[C@@H]1C=C[C@H](NC(=O)C2CC2)[C@H](CO)O1)NCc1ccccc1Cl | -9 | -16 |
| C[C@@H]1CN([C@@H](C)CO)C(=O)c2cccc(NC(=O)Nc3ccc(C(F)(F)F)cc3)c2O[C@@H]1CN(C)Cc1ccc2c(c1)OCO2 | -23 | -21 |
| O=C(Nc1ccc(F)cc1)N1CC(=O)N2[C@H](C1)[C@H](c1ccc(C3=CCCC3)cc1)[C@@H]2CO | -4 | 1 |
| CCCN(C)C[C@@H]1OCc2cnnn2CCCC(=O)N([C@@H](C)CO)C[C@H]1C | 2 | 16 |
| Cc1ccc(-c2ccc([C@H]3[C@@H](CO)N4CCCCN(C(=O)c5ccncc5)C[C@@H]34)cc2)cc1 | 4 | -7 |
| O=C(c1ccccn1)N1CC(=O)N2[C@@H](CO)[C@H](c3ccc(C#CCc4ccccc4)cc3)[C@@H]2C1 | 26 | 20 |
| Cc1noc(C)c1S(=O)(=O)Nc1ccc2c(c1)CC(=O)N([C@@H](C)CO)C[C@H](C)[C@@H](CN(C)CC1CC1)O2 | -3 | 8 |
| C[C@@H]1CN([C@H](C)CO)C(=O)Cc2cc(NS(=O)(=O)c3cccs3)ccc2O[C@@H]1CN(C)Cc1ccc(C(=O)O)cc1 | 7 | 8 |
| Cc1ccc(S(=O)(=O)N[C@H]2CC[C@@H](CCn3cc(-c4cccnc4)nn3)O[C@H]2CO)cc1 | -2 | -2 |
| COc1cccc(NC(=O)N2CC(=O)N3[C@H](CO)[C@@H](c4ccc(C#CCC5CCCC5)cc4)[C@@H]3C2)c1 | ? | nt |
| COCC#Cc1ccc2c(c1)O[C@H](CN(C)S(=O)(=O)c1ccc(C)cc1)[C@H](C)CN([C@@H](C)CO)S2(=O)=O | -30 | -25 |
| C[C@H](CO)N1C[C@H](C)[C@@H](CN(C)S(C)(=O)=O)Oc2ccc(NC(=O)Nc3ccccc3)cc2C1=O | 0 | -1 |

Molecules from the list above that contain fluorine:
| compound | Vaccinia inh | Vaccinia inh Venus |
| --- | --- | --- |
| O=C(Cc1ccccn1)N1CCCCN2[C@H](C1)[C@H](c1ccc(-c3ccccc3F)cc1)[C@@H]2CO | -14 | -4 |
| C[C@@H]1CN([C@@H](C)CO)C(=O)c2cc(NC(=O)Nc3ccc4c(c3)OCO4)ccc2O[C@@H](C)CCCCO[C@@H]1CN(C)Cc1ccc(C(F)(F)F)cc1 | -3 | 2 |
| Cc1ccc(S(=O)(=O)N(C)C[C@H]2OCCCC[C@H](C)Oc3ccc(NC(=O)Nc4ccc(F)cc4)cc3C(=O)N([C@H](C)CO)C[C@H]2C)cc1 | 6 | 11 |
| C[C@@H]1CN([C@@H](C)CO)C(=O)c2cc(NC(=O)CCC(F)(F)F)ccc2O[C@@H]1CN(C)Cc1ccc(Oc2ccccc2)cc1 | ? | nt |
| O=C(Nc1ccccc1F)N[C@H]1CC[C@@H](CCNC(=O)C2CC2)O[C@@H]1CO | 3 | -1 |
| C[C@@H]1CN([C@@H](C)CO)C(=O)c2cccc(NC(=O)Nc3ccc(C(F)(F)F)cc3)c2O[C@@H]1CN(C)Cc1ccc2c(c1)OCO2 | -23 | -21 |
| O=C(Nc1ccc(F)cc1)N1CC(=O)N2[C@H](C1)[C@H](c1ccc(C3=CCCC3)cc1)[C@@H]2CO | -4 | 1 |

Later entries
SMILES	Vaccinia inh	Vaccinia inh Venus
COc1ccccc1CNC(=O)C[C@@H]1C[C@H]2c3cc(NS(C)(=O)=O)ccc3O[C@H]2[C@@H](CO)O1	10	8
O=C(c1cccc(F)c1)N1C[C@H]2[C@@H](c3ccccc31)[C@@H](CO)N2Cc1cocn1	2	4
CCC(=O)N(C)C[C@@H]1Oc2ncc(C#Cc3ccc(OC)cc3)cc2C(=O)N([C@H](C)CO)C[C@H]1C	0	-7
O=C(c1ccncc1)N1CC2(C1)[C@H](c1ccccc1)[C@@H](CO)N2Cc1ccccn1	4	8
CC(C)NC(=O)N1CCCCN2[C@H](CO)[C@@H](c3ccc(C#C[C@H](C)O)cc3)[C@@H]2C1	26	12
O=C(Nc1cc(Cl)cc(Cl)c1)N[C@H]1CC[C@@H](CCNS(=O)(=O)c2cccc(F)c2)O[C@H]1CO	?	nt
Cc1noc(C)c1S(=O)(=O)N(C)C[C@@H]1OCCCC[C@H](C)Oc2ccc(NC(=O)Nc3ccc(C(F)(F)F)cc3)cc2C(=O)N([C@H](C)CO)C[C@H]1C	-7	-10
COCC#Cc1ccc2c(c1)O[C@H](CN(C)C(=O)C1CCOCC1)[C@@H](C)CN([C@@H](C)CO)S2(=O)=O	8	-2
CC(C)NC(=O)Nc1ccc2c(c1)C(=O)N([C@H](C)CO)C[C@@H](C)[C@H](CN(C)C(=O)Nc1ccc(F)cc1)OCCCC[C@@H](C)O2	-9	-7
COCC(=O)N1[C@H](C#N)[C@H](c2ccccc2-c2ccccc2)[C@H]1CO	18	10
C[C@H](CO)N1C[C@H](C)[C@H](CN(C)Cc2ccccc2)OCCCC[C@H](C)Oc2ccc(NC(=O)Nc3ccc(C(F)(F)F)cc3)cc2C1=O	?	nt
CNC(=O)C[C@H]1CC[C@H]2[C@@H](COC[C@H](O)CN2C(=O)c2ccc3c(c2)OCO3)O1	5	2
Cc1noc(C)c1S(=O)(=O)Nc1ccc2c(c1)CC(=O)N([C@@H](C)CO)C[C@@H](C)[C@@H](CN(C)C)O2	3	9
C[C@H]1CN([C@@H](C)CO)C(=O)c2cccc(NS(C)(=O)=O)c2O[C@H]1CN(C)S(=O)(=O)c1ccc(Cl)cc1	11	11
COc1ccc(C#Cc2ccc3c(c2)O[C@@H](CN(C)S(=O)(=O)c2ccccc2F)[C@H](C)CN([C@@H](C)CO)S3(=O)=O)cc1	-21	-11
COc1ccc2c3c(n(C)c2c1)[C@H](CO)N(Cc1ccc2c(c1)OCO2)CC31CN(C(=O)c2ccc3c(c2)OCO3)C1	6	2
Cc1ccc(S(=O)(=O)Nc2ccc3c(c2)C(=O)N([C@@H](C)CO)C[C@H](C)[C@H](CN(C)C(=O)Nc2ccc(C(F)(F)F)cc2)OCCCC[C@H](C)O3)cc1	-35	-15
C[C@@H]1CN([C@@H](C)CO)C(=O)CCCn2cc(nn2)CO[C@H]1CN(C)C(=O)CCCN(C)C	17	1
CCCC#Cc1ccc([C@H]2[C@@H](CO)N3C(=O)CN(C(=O)c4ccccc4)C[C@H]23)cc1	-32	-14
CN(C)CC(=O)N1[C@@H]2c3ccc(C4=CCCC4)c(=O)n3C[C@H]1[C@H](CO)[C@H]2C(=O)NCC1CC1	23	6
CCCNC(=O)N1CC2(C1)[C@H](c1ccccc1)[C@@H](CO)N2C(=O)c1cccnc1	18	15
C[C@@H]1CCCCO[C@H](CN(C)Cc2ccc(Cl)c(Cl)c2)[C@@H](C)CN([C@H](C)CO)C(=O)c2cc(NC(=O)Nc3ccccc3)ccc2O1	3	8
CN(C)CC(=O)N[C@H]1CC[C@@H](CCn2cc(CN(C)C)nn2)O[C@@H]1CO	10	-3
COc1ccc(CNC(=O)C[C@H]2C=C[C@@H](NS(=O)(=O)c3cccc(OC)c3)[C@@H](CO)O2)cc1	6	-3
O=C(NCC[C@H]1CC[C@H](NC(=O)c2cnccn2)[C@@H](CO)O1)c1ccc2c(c1)OCO2	-10	-4
O=C(C[C@@H]1CC[C@H]2[C@@H](COC[C@@H](O)CN2Cc2ccccc2)O1)N1CCOCC1	28	20
CCCC#Cc1ccc2c(c1)O[C@H](CN(C)C(=O)C1CC1)[C@H](C)CN([C@@H](C)CO)S2(=O)=O	?	nt
O=C(C[C@H]1C=C[C@H](NS(=O)(=O)c2ccccc2)[C@@H](CO)O1)N1CCN(c2ccccc2)CC1	17	-7
CO[C@@H]1CC[C@H]2CCOc3ccc(C#N)cc3C(=O)N(C)C[C@@H](OC)[C@@H](C)C(=O)N(C)C[C@@H]1O2	5	2
C[C@H]1CN([C@@H](C)CO)C(=O)c2cc(NC(=O)Nc3ccc4c(c3)OCO4)ccc2O[C@@H]1CN(C)Cc1ccc(Oc2ccccc2)cc1	-18	-11
COc1ccc(S(=O)(=O)Nc2ccc3c(c2)C(=O)N([C@@H](C)CO)C[C@H](C)[C@@H](CN(C)S(=O)(=O)c2ccc(Cl)cc2)OCCCC[C@@H](C)O3)cc1	-31	-22
Cc1ccccc1-c1cnc2c(c1)C(=O)N([C@@H](C)CO)C[C@H](C)[C@H](CN(C)Cc1ccncc1)O2	11	-2
COc1cccc(S(=O)(=O)N[C@H]2CC[C@@H](CCn3cc(-c4ccc(F)cc4)nn3)O[C@H]2CO)c1	-21	-15
C[C@H]1CN([C@@H](C)CO)C(=O)c2cccc(NC(=O)Nc3ccc4c(c3)OCO4)c2O[C@@H]1CN(C)C(=O)Nc1cccc2ccccc12	5	14
O=C(C1CC1)N1C[C@H]2[C@@H](c3ccccc31)[C@H](CO)N2Cc1ccccc1Cl	7	2
C[C@@H]1CN([C@@H](C)CO)C(=O)c2cccc(NS(=O)(=O)c3cn(C)cn3)c2O[C@H]1CN(C)Cc1ccc(-c2ccccc2)cc1	-5	1
O=C(Nc1cccc(F)c1)N1CC(=O)N2[C@H](C1)[C@H](c1ccc(C#Cc3cccnc3)cc1)[C@@H]2CO	-24	-11
CCNC(=O)C[C@H]1CC[C@H]2[C@H](COc3ccc(NC(=O)Nc4ccccc4OC)cc3C(=O)N2C)O1	4	0
O=C(C[C@H]1CC[C@@H]2[C@H](COC[C@H](O)CN2Cc2ccccc2)O1)N[C@@H]1CCN(Cc2ccccc2)C1	-22	-9
C[C@H]1CN([C@@H](C)CO)C(=O)c2cc(NC(=O)Nc3ccc4c(c3)OCO4)ccc2O[C@H]1CN(C)Cc1ccncc1	16	0
N#C[C@@H]1[C@H](c2ccc(C#Cc3cccc(F)c3)cc2)[C@@H](CO)N1C(=O)C1CC1	-22	-9

Not all compounds are listed. The share of hits here may be higher or lower than overall.
